Bioassay records: PubChem, National Center for Advancing Translational Sciences (NCATS)
StopGo FLuc – Primary qHTS Assay for Foot and Mouth Disease Virus Antivirals against NCGC Sytravon and CBC Compound Libraries: Firefly Luciferase Signal. HEK cells with a luciferase reporter of 2A StopGo recoding. AID 1745856, 2022. Potency, µM (titrated, usually from 57.5 µM), for the others: top-dose signal change, negative = less light. 120,000 tested, 0.23% active; active = well fitted falling curve with a large enough effect; inconclusive = small, poorly fitted or top-dose-only effect; inactive = no such curve, though single readings can be large or run the other way; also: nearly all actives have a fitted effect of over 60% in size; overnight with compound
2A Renilla – Primary qHTS Assay for Foot and Mouth Disease Virus Antivirals against NCGC Sytravon and CBC Compound Libraries: Renilla Luciferase Signal; 120,000 tested, 0.32% active; Potency, µM (titrated, usually from 57.5 µM), for inactives: at the top dose signal change, negative = less light; HEK cells with a luciferase reporter of 2A StopGo recoding; active means well fitted falling curve with a large enough effect; inconclusive means small, poorly fitted or top-dose-only effect; inactive means no such curve, though single readings can be large or run the other way; also: nearly all actives have a fitted effect of over 55% in size; overnight with compound
* = called active by the depositor; ? = inconclusive; & = joins results of further samples; [ ] = dose if it differs, or a comment. % is scaled to controls: 0 for no effect and ±100 for the full control effect; potency is read from the fitted curve at half-maximal effect.

SMILES	StopGo FLuc	2A Renilla
COc1ccc2c(CNCC(C)c3ccccc3)c(C(=O)O)n(Cc3ccc(F)cc3Cl)c2c1 (stereo not given)	-2%	1%
Cc1c(C(=O)N2CCCCCC2)c(S(=O)(=O)N2CCc3ccccc32)c(C)n1C	40%[activator]	64%[activator]
CCCc1sc(C(=O)N2CCCCCC2)cc1Br	0%	43%[activator]
COc1ccc(C(=O)/C=C/c2ccc(F)c(F)c2)cc1CC(=O)O	0%	-12%
CCOC(=O)N1CCN(CC(=O)Nc2oc3ccccc3c(=O)c2-c2ccc(C)cc2)CC1	13%	-10%
Cc1c(N(C)C)c(=O)n(-c2ccccc2)n1C	-5%[11.5 µM]	-6%
Cc1ccc2c(C)c(CCC(=O)NCc3ccc4c(c3)OCO4)c(=O)oc2c1	-4%	4%
CN(Cc1ccccc1)C(=O)c1ccc2c(c1)N(Cc1ccccc1F)C(=O)c1ccccc1S2(=O)=O	-8%	79%[activator]
CCC(Sc1nnc2c(=O)n(-c3ccccc3OC)ccn12)C(=O)Nc1cc(C)ccc1C (stereo not given)	1%	-8%
CC(C)Oc1ccc(Br)cc1/C=C/C(=O)O	14%	24%
CN1CCc2c(sc3c2c(=O)n(-c2cccc(Cl)c2)c(=O)n3CCN2CCCCC2)C1	-13%	-20%
Cc1ccccc1CN1C(=O)c2ccccc2S(=O)c2ccc(C(=O)NCc3ccc(Cl)cc3)cc21 (stereo not given)	-7%	7%
Cn1c(=O)c2c(ncn2CC(=O)Nc2cccc(Cl)c2)n(C)c1=O	14%	6%
Cc1cccc(C(=O)NCc2nc(C)cs2)n1	17%	1%
Cc1ccccc1NC(=O)c1c(NC(=O)c2ccco2)sc2c1CCC(C(C)(C)C)C2 (stereo not given)	-16%	-13%
COc1ccc(S(=O)(=O)Nc2cc(-c3cn4cccc(C)c4n3)ccc2C)cc1C	-1%	354%[activator]
CC1CCc2c(sc3nnn(Cc4ccccc4Cl)c(=O)c23)C1 (stereo not given)	-17%	-8%
Cc1ccc(CCNC(=O)c2cc(Nc3ccc(C)c(C)c3)nc3ccccc23)cc1	16%	15%
COc1ccc(-c2nn3c(C(C)C)nnc3s2)cc1OC	26%	11%
N#Cc1cnc(Nc2nc3ccccc3o2)nc1-c1ccccc1	8%	-10%
CC(C)CC(=O)Nc1nonc1-c1ccc(Br)cc1	6%	70%[activator]
CCOC(=O)c1c(N)n(-c2ccc(CC)cc2)c2nc3ccccc3nc12	-12%	-5%
O=C1CC(c2ccc3c(c2)OCO3)c2c(c3ccccc3[nH]c2=O)O1 (stereo not given)	-3%	-11%
Cc1ccc(NC(=O)Nc2ccc3c(c2)N(C)C(=O)c2ccccc2S3)c(C)c1	-13%	2%
O=C(O)CSCc1ccc(Cl)cc1Cl	30%	21%

Reprinted from the results shown, 2 compounds:
SMILES	StopGo FLuc	2A Renilla
CCC(Sc1nnc2c(=O)n(-c3ccccc3OC)ccn12)C(=O)Nc1cc(C)ccc1C (stereo not given)	1%	-8%
CC(C)Oc1ccc(Br)cc1/C=C/C(=O)O	14%	24%

More results:
SMILES	StopGo FLuc	2A Renilla
O=C(Oc1ccccc1)c1cc2ccccc2oc1=O	48%[activator]	40%[activator]
CCNC(=O)NC1=C(C#N)C(C)(C)Cc2ccccc21	7%	-9%
CCc1ccc(-c2nc3c(c(SCc4ccc(F)cc4)n2)Cc2c(CO)cnc(C)c2O3)cc1	-8%	32%[activator]
CC(OC(=O)c1ccc2ccccc2n1)C(=O)Nc1cc(Cl)cc(Cl)c1 (stereo not given)	-6%	-13%
N#C/C(=C/c1ccccc1)C(=O)Nc1ccc(N2CCOCC2)cc1	0%	47%[activator]
CCN(C(=O)Cn1nc(C)c2ccccc2c1=O)c1nc2ccccc2s1	8%	3%
CCNc1nc(Cl)nc(NCC)n1	-13%	-11%
Cc1cc(=O)oc2cc(OCc3ccc(C(=O)OC(C)C(=O)NC(N)=O)cc3)ccc12 (stereo not given)	45%[activator]	8%
CCCC(=O)c1cc2c(cc1NC(=O)c1cccs1)OCCO2	-17%	-16%
CCc1ccc(NC(=O)Cn2c(=O)n(CCCC(=O)NCCc3ccc(OC)c(OC)c3)c(=O)c3ccccc32)cc1	-4%	-2%
Cc1ccccc1CC(C)Nc1ccc(C#N)cn1 (stereo not given)	3%	15%
O=c1c(N2CCc3ccccc3C2)csc2ccc(F)cc12	96%[activator]	128%[activator]
CC(C)NC(=O)CN1CCCN(C(=O)c2cc3ccccc3n2C)CC1	5%	-3%
COC(=O)c1ccc(C)c(NS(=O)(=O)c2c(C)nn(C)c2C)c1	26%	35%[activator]
Cc1c2cnn(-c3ccccc3)c(=O)c2c(C)n1C(C)C(=O)NCc1cccc(Br)c1 (stereo not given)	?	?
COc1ccc(C(=O)Nc2c(NCc3ccccc3)c3ccccc3oc2=O)cc1	-4%	-2%
CC(=O)Nc1cccc(-c2nc3cc(Cl)cc(Cl)c3o2)c1	13%	-9%
CCN(Cc1nc2cc(Cl)ccc2c(=O)[nH]1)C(=O)CNC(=O)c1ccc(C(F)(F)F)cc1	-16%	-24%
O=C1CCCCC1Sc1nccn1-c1ccccc1 (stereo not given)	40%[activator]	12%
COc1ccccc1Cc1nc2ccccc2nc1SCC(=O)NCCc1ccccc1	2%	4%
CCc1ccc(-n2c(CCC(=O)O)ccc2-c2cccs2)cc1	0%	-10%
CCN(CC)CCCNC(=O)c1c(C)oc2ncn(CC(C)C)c(=O)c12	1%	-14%
CCCN1CCC(NC(=O)c2csc(C)c2CC)CC1	-3%	-6%
CCc1ccc2oc(C(=O)N(Cc3cccc(Cl)c3)C3CCS(=O)(=O)C3)cc(=O)c2c1 (stereo not given)	3%	33%[activator]
CC(C)Cc1nc(Cn2cc(S(=O)(=O)N3CCCC3)ccc2=O)no1	10%	-6%

By substructure: those above with a cyano group.
SMILES	StopGo FLuc	2A Renilla
N#Cc1cnc(Nc2nc3ccccc3o2)nc1-c1ccccc1	8%	-10%
CCNC(=O)NC1=C(C#N)C(C)(C)Cc2ccccc21	7%	-9%
N#C/C(=C/c1ccccc1)C(=O)Nc1ccc(N2CCOCC2)cc1	0%	47%[activator]
Cc1ccccc1CC(C)Nc1ccc(C#N)cn1 (stereo not given)	3%	15%

Fetched by compound from the list above, seven records:
SMILES	StopGo FLuc	2A Renilla
Cc1c2cnn(-c3ccccc3)c(=O)c2c(C)n1C(C)C(=O)NCc1cccc(Br)c1 (stereo not given)	?	?
CC(C)Oc1ccc(Br)cc1/C=C/C(=O)O	14%	24%
O=C(O)CSCc1ccc(Cl)cc1Cl	30%	21%
CN1CCc2c(sc3c2c(=O)n(-c2cccc(Cl)c2)c(=O)n3CCN2CCCCC2)C1	-13%	-20%
O=c1c(N2CCc3ccccc3C2)csc2ccc(F)cc12	96%[activator]	128%[activator]
CCc1ccc(NC(=O)Cn2c(=O)n(CCCC(=O)NCCc3ccc(OC)c(OC)c3)c(=O)c3ccccc32)cc1	-4%	-2%
CCOC(=O)N1CCN(CC(=O)Nc2oc3ccccc3c(=O)c2-c2ccc(C)cc2)CC1	13%	-10%

Whole records, quoted from the list.
CCCc1sc(C(=O)N2CCCCCC2)cc1Br is listed as StopGo FLuc: 0%; 2A Renilla: 43%[activator]
CCC(Sc1nnc2c(=O)n(-c3ccccc3OC)ccn12)C(=O)Nc1cc(C)ccc1C (stereo not given) is listed as StopGo FLuc: 1%; 2A Renilla: -8%

Carrying on:
SMILES	StopGo FLuc	2A Renilla
COC(=O)COc1ccc2c(=O)c(Oc3cc(C)ccc3C)coc2c1	-4%	-4%
COc1ccc2c(COC(=O)c3ccc(F)cc3)cc(=O)oc2c1	11%	0%
COc1ccc(C(=O)/C(=C\c2cccc(Cl)c2)c2nc3ccccc3o2)cc1	?	?
CCCn1nc(C(=O)N2CC(C(=O)N3CCOCC3)Oc3ccccc32)c2ccccc2c1=O (stereo not given)	14%	26%
O=C(Nc1c(C(=O)N2CCC(N3CCCCC3)CC2)oc2ccccc12)C1CC1	-1%	80%[activator]
COc1ccc(C(=O)Nc2ccc(-c3nc4ccccc4o3)cc2)cc1OC	99%[activator]	2%
CC(C)c1ccc(C(CNC(=O)c2cc(-c3cccs3)on2)N2CCOCC2)cc1 (stereo not given)	0%	29%
Cc1cc2oc(=O)cc(CN3CCN(CC(=O)N4CCCCC4C)CC3)c2cc1C (stereo not given)	-7%	-10%
CC1CCN(c2oc(-c3ccc(COc4ccc(Cl)cc4)o3)nc2C#N)CC1	-1%	-5%
Nc1nc(Cl)nc2c1ncn2[C@@H]1O[C@H](CO)[C@@H](O)[C@@H]1F	9%[11.5 µM]	19%
CC(=O)C1=C(c2ccc(Cl)c(Cl)c2)N(C(C)=O)n2c(nnc2C2CCCCC2)S1	-19%	-8%
Cc1cc(-c2nc3cc(NC(=O)C(C)C)ccc3o2)ccc1Br	67%[activator]	6%
Cc1ccc(-c2cnc(CCC(=O)NCC3CC3)o2)cc1C	-5%	10%
O=C(CSc1nc2ccccc2nc1Cc1ccccc1)N1CCCc2ccccc21	45%[activator]	49%[activator]
C#CCOc1ccc2ccccc2c1/C=C(\C#N)c1ccc(F)cc1	45%[activator]	50%[activator]
O=C(NCCc1ccc(Cl)cc1)c1ccc2nc(CCc3ccccc3)oc2c1	33%[activator]	-18%
Cc1ccccc1NC(=O)CSc1ncc2c(n1)-c1ccccc1N(C)S2(=O)=O	?	?
Cc1cc(OC(C)(C)c2n[nH]c(=S)n2CC(C)C)ccc1Cl	5%	5%
COc1cc(C(=O)NCC2COc3ccccc3O2)cc(OC)c1OC (stereo not given)	-2%	1%
O=C(NCC(c1cccs1)N1CCCCC1)c1cc2ccccc2oc1=O (stereo not given)	157%[activator]	8%
NC(=O)c1ccc(CNc2cnc3ccccc3n2)cc1	115%[activator]	9%
N#Cc1ccc(C(=O)OCC(=O)Nc2ccc(N3CCOCC3)cc2)cc1	-1%	-9%
CCN(C(=O)Cn1cnc2c1c(=O)n(C)c(=O)n2C)c1ccccc1C	-12%	-11%
COc1ccc2c(c1)CC(C(=O)Nc1cccc(C)c1C)CO2 (stereo not given)	8%	9%
Cc1ccccc1OCC(=O)Nc1ccc2nc(SCC(=O)N(C)c3ccccc3)sc2c1	-4%	-4%

The list goes on.
SMILES	StopGo FLuc	2A Renilla
CC(C)[C@H](N)C(=O)OCCOCn1cnc2c(=O)[nH]c(N)nc21	-5%[11.5 µM]	-6%
O=C(/C=C/Nc1ccc(Br)cc1F)c1ccc(OC(F)F)cc1	272%[activator]	27%
Cc1ccc(NC(=O)Cn2c(-c3nonc3N)nc3ccccc32)cc1Cl	0%&92%	8%&145%
Cc1onc(-c2ccccc2)c1C(=O)N1CCN(S(=O)(=O)c2ccc(Cl)cc2)CC1	-2%	-4%
C/C(=N/Nc1ccccc1C(F)(F)F)c1cccs1	64%[activator]	13%
CSc1ccc(Cl)c(C(=O)Oc2ccccc2Cc2ccccc2)c1	10%	11%
COc1cccc(N2CC(C(=O)Nc3ccccc3C(=O)N3CCN(c4ccccc4)CC3)CC2=O)c1 (stereo not given)	-10%	-10%
CCC(Sc1nc2ccncc2[nH]1)C(=O)Nc1ccc(F)cc1 (stereo not given)	-14%&-10%	-10%&-10%
CC(=O)c1ccc(N2CCN(C(=O)c3csc(-c4ccccc4)n3)CC2)cc1	42%[activator]	3%
Cc1ccccc1CNC(=O)C(C)n1nc(C)n2c(cc3occc32)c1=O (stereo not given)	10%	23%
COCCNC(=O)C1CCN(C(=O)c2cc3sccc3n2Cc2ccc(Cl)cc2)CC1	?	?
CCOc1ccc(CNCc2c(C(=O)O)n(Cc3ccccc3C)c3cc(OC)ccc23)cc1OC	-16%	-4%
Cc1ccc(CNC(=O)C2CCN(S(=O)(=O)/C=C/c3ccccc3)CC2)cc1	22%	39%[activator]
Cc1nc2ccc(C(=O)N3CCN(CC(=O)NCc4ccccc4)CC3)cc2nc1C	26%	-5%
Cc1ccc(-c2nn(CCC(=O)NC(C)C)c(=O)c3ccccc23)cc1	-3%	-5%
COc1ccc(-n2c(-c3ccco3)nc3c(cnn3-c3ccccc3Cl)c2=O)cc1	-22%	-11%
Cc1ccc(NCc2ccc(O)cc2)cc1	0%	6%
COc1ccc(OC)c(CC(=O)NC(c2ccccc2)c2ccccc2)c1	-8%	-2%
COC(=O)CNC(=O)c1ccc(C)cc1	18%	-11%
NC(=O)c1cc(Cc2ccccc2)sc1NC(=O)c1ccco1	228%[activator]	21%
Cc1ccc(NC(=O)C2CCCN(S(=O)(=O)c3cccc4cccnc34)C2)cc1 (stereo not given)	1%	19%
COc1ccccc1NC(=O)Cn1c(=O)n(Cc2cccs2)c(=O)c2cccnc21	10%	-6%
Cc1cccc(OCc2nn3c(CN4CCOCC4)nnc3s2)c1	14%	2%
CCc1ccc(NC(=O)Cn2c(=O)n(CCCCC(=O)NCc3ccccc3Cl)c(=O)c3ccccc32)cc1	-4%	0%
NC(=S)NNc1ccccc1	0%	1%
FC(F)(F)c1ccccc1/C=N/Nc1ccc(Cl)c(Cl)c1	105%[activator]	21%
CCOc1ccc(CCNC(=O)c2cnc3sc(N4CCCCCC4)nn3c2=O)cc1	-12%	-17%
CCc1c(C(=O)NC(C)C)csc1C	7%	2%

An excerpt. The share of hits here may be higher or lower than overall.
